Vif A3G: HIV-1 Vif–A3G interaction blockers – biochemical, TR-FRET, GST-Vif 1-94, biotin-A3G peptide, dose response retest, primary screen (AID 1117319); TR-FRET GST-Vif / biotin-A3G peptide binding; higher % means a stronger effect; test concentration not given here; strong numbers were not always called active; inhibition, %; hits with a dose series show IC50 in µM; 0.57% of 260,000 active;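 active = above the screen mean plus three standard deviations and confirmed in dose response; inconclusive = results disagree or hit not tested in dose response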;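 note: Vif residues 1-94 fused to GST binding biotinylated APOBEC3G peptide 110-148; 0% = full assay without inhibitor and 100% = GST in place of GST-Vif; retest series ran down from 100 µM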
Bfl-1 A1 inh: inhibitors of the anti-apoptotic protein A1, read as caspase activation; caspase activation, % (test concentration not listed); MEF A1-2A-BIM cells, Caspase-Glo 3/7 luminescence, 3 h; percent of clofoctol response, vehicle zero; 0.066% of 330,000 active;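 active = over half of replicate activation scores above 10%, or exactly half above 10 with the replicate mean above 10; inconclusive = replicate mean below 10 yet half the replicates above 10; inactive = over half of replicates below 10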;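 note: wells of about 30 µL received 50 nL stock; many hits fall short of the cut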
AF4-AF9 inh: blocks AF4 peptide binding to human AF9; P42568; AlphaScreen, biotin-AF4 peptide binding to FLAG-AF9; inhibition, % at 10 µM; 0.47% of 350,000 active; AID 651704;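 active = every replicate reaching a set inhibition limit, whatever the replicate mean, cut at about 25% in these data; inconclusive = mean inhibition reaches that limit but some replicates miss it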;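 note: 0% = plate neutral control median and 100% = total signal loss; the record names both 10 and 1 µM as test concentration; the first replicate is given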
Calb FLC: affects C. albicans growth with fluconazole | AID 1979 | growth inhibition, % (concentration not given with the values) | C. albicans CaCi-2 (fluconazole-resistant clinical isolate) + fluconazole, Alamar Blue growth, 48 h | 0.57% of 300,000 active;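 active = most replicates above 75%; inconclusive = exactly half above 75%; inactive = most below 75%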;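 note: all wells also contain fluconazole at 8 µg/ml as a sub-toxic cotreatment; 0% = median of DMSO wells and 100% = median of geldanamycin control wells; wells of about 8 µL received 7.5 nL stock; the first replicate is given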
Beta apoptosis: blocks beta cell apoptosis; INS-1E cytokine-induced death, ATP luminescence, 48 h; percent of positive-control rescue, neutral wells zero; protection from apoptosis, % (test concentration not listed); 0.8% of 300,000 active;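 active = all replicates at 75% or more, or half of them and the mean; inconclusive = half reach 75% but not the mean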;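 note: 0% = cytokine-treated negative control wells and 100% = positive control rescue; higher means more ATP so stronger rescue from cytokine killing; wells of about 40 µL received 100 nL stock; the first replicate is given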
RanGTP-Impb inh: disruptors of Ran-importin-beta complex formation – biochemical, FRET, CFP-Ran, YFP-importin-beta, homogeneous, primary screen; cell-free CFP-Ran/YFP-importin-beta FRET ratio; inhibition, % (test concentration not listed); 1.1% of 300,000 active; AID 2216;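 active = most replicates above 15%; inconclusive = exactly half above 15%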;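 note: 0% = DMSO wells and 100% = Ran loaded with GDP instead of GTP; wells of about 40 µL received 100 nL stock; the first replicate is given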
T cruzi inh: T. cruzi replication inhibition. T. cruzi beta-gal in NIH3T3, luminescence, 90 h. inhibition, % (test concentration not listed). 1.4% of 300,000 active;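 active = mean inhibition across valid replicates above about 55%, limit read from the data; inconclusive = mean below that limit but half or more replicates reach it; inactive = mean below it, under half of replicates reach it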;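 note: signal also drops with host cell toxicity which is not excluded here; 0% = plate median of DMSO wells and 100% = zero luminescence signal; higher percent means less beta-gal luminescence so fewer parasites; stock transfer was 50 nL into about 50 µL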
LANA-H2B inh: blocks KSHV LANA binding to histone H2A/H2B; cell-free LANA-H2A/H2B peptide, fluorescence polarization; 0.6% of 320,000 active; inhibition, % (no concentration beside the values); AID 2629; in the data active = inhibition mostly above about 10%, no sharp cut-off; inactive = mostly below about 6.7%;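 note: stock transfer was 7.5 nL into about 10 µL; 0% = median of vehicle wells and 100% = median of positive control wells; one replicate is shown; the record names a cut of 25% in any replicate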
Target sequence (Q9QR71 whole entry, looked up): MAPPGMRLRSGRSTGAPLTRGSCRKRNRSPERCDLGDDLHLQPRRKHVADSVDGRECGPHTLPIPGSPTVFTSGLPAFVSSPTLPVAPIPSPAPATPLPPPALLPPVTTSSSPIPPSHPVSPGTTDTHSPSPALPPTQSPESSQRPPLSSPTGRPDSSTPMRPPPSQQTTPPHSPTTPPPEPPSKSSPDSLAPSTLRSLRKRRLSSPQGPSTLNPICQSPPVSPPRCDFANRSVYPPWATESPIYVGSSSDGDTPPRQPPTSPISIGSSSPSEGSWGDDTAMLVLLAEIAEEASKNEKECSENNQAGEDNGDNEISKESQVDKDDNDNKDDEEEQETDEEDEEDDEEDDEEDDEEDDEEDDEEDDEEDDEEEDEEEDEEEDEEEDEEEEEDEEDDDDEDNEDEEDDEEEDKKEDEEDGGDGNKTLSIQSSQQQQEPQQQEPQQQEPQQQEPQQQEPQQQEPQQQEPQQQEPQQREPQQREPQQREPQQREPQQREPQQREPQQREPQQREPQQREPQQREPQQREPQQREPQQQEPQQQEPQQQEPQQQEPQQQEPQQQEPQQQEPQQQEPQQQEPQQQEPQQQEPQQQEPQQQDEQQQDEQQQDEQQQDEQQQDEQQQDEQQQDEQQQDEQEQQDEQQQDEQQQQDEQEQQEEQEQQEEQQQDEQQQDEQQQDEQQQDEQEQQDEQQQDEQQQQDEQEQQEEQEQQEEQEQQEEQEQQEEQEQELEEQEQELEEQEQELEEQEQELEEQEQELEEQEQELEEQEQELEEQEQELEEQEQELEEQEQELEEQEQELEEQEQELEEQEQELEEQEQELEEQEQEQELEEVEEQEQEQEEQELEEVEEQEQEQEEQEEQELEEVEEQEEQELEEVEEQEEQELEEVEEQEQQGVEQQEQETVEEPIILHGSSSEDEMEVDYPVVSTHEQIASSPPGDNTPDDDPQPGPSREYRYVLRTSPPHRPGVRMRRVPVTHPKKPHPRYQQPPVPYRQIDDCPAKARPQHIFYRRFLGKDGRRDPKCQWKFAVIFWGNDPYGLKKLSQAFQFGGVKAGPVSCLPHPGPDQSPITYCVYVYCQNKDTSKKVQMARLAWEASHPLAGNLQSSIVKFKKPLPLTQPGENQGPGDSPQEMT
The depositor's hits bear a star; ? = inconclusive; / = no result given.

SMILES | Vif A3G | Bfl-1 A1 inh | AF4-AF9 inh | Calb FLC | Beta apoptosis | RanGTP-Impb inh | T cruzi inh | LANA-H2B inh
O=C1NN(c2ccc(Cl)c(Cl)c2)C(=O)/C1=C/c1ccc(-c2ccccc2C(=O)O)o1 | 27% | 1.4 | 5.2 | 81* | 1 | 4.0 | -10 | -1.5
CC(C)(C)c1cc(N2CCOCC2)n2ncc(-c3ccc(Cl)cc3)c2n1 | -11% | 1.2 | -1.3 | -6 | 2 | -0.7 | -5 | -2.1
CCOC(=O)CC1C(=O)NCCN1S(=O)(=O)c1ccc(Cl)c(Cl)c1 (stereo not given) | ? | 0.0 | / | -10 | -5 | -0.1 | -11 | 1.0
CC(NC(=O)CCc1nnc(-c2ccccc2)o1)c1ccccc1 (stereo not given) | 0% | 1.0 | -16 | -4 | -2 | -4.2 | -1 | -3.7
Cc1ccc(OCC(=O)NC2=NCCS2)cc1 | 1% | -0.1 | / | -3 | 0 | ? | -5 | -2.1
CCOC(=O)CSc1nc2cc(S(=O)(=O)Nc3ccccc3OC)ccc2o1 | 1% | 0.2 | -0.1 | 10 | 0 | 1.0 | -8 | 1.4
CC(C)(O)C#Cc1ccc(C(=O)NCCC(=O)O)s1 | 6% | 2.2 | 1.8 | 4 | -8 | -1.3 | -12 | -12
COc1cc(C)nc(N2CCC(C(=O)NCC3CCCO3)CC2)n1 (stereo not given) | -11% | 0.2 | 7.5 | -30 | / | 0.3 | 3 | 4.5
CCC(C)(C)n1nnnc1C(c1ccccn1)N1CCCCC1 (stereo not given) | -5% | 1.1 | / | 0 | -7 | -3.1 | 1 | 2.5
COc1ccc2c(-c3ccccc3)cc(=S)[nH]c2c1 | -2% | 1.0 | -6.8 | 8 | 6 | 3.2 | 4 | -6.1
CCC(C)[C@H](NC(=O)c1cn(CC)c2cc3c(cc2c1=O)OCO3)C(=O)NCCCn1ccnc1 (stereo not given in full) | / | 0.4 | 0.9 | / | -6 | 2.7 | 5 | -3.3
O=C1CC(N(O)c2ccccc2)C(=O)N1c1ccc(Cl)c(Cl)c1 (stereo not given) | -1% | 0.4 | 0.0 | -5 | -11 | -1.8 | -10 | 1.4
CC1(C)CC(C(=O)Nc2nccs2)CCO1 (stereo not given) | 1% | 0.6 | / | 8 | -7 | -4.3 | -10 | -2.6
CCCCn1c(N)c(N(CC)C(=O)c2ccc(Cl)c(Cl)c2)c(=O)[nH]c1=O | 1% | -0.5 | -1.9 | -2 | -3 | 2.4 | -3 | -0.7
CC(=O)N1CCc2cc(S(=O)(=O)CCC(=O)NCCc3ccc(Cl)cc3)ccc21 | 0% | -1.3 | 1.2 | -4 | -1 | -1.4 | -8 | -2.0
Cc1ccc(S(=O)(=O)N2CCC[C@H]2C(=O)OCC(=O)Nc2ccc3c(c2)OCO3)cc1 | / | -0.3 | -0.1 | / | -5 | / | / | 4.7
CCOC(=O)C1=C(CC)Nc2ccccc2N/C1=N\S(=O)(=O)c1ccccc1F | 0% | -0.2 | 1.3 | / | 6 | / | / | 0.2
CC(=O)CSc1nnc2c3ccccc3nc(C(C)(C)C)n12 | 2% | -0.8 | -0.9 | 17 | -6 | -0.1 | -2 | 9.7
Cc1ccc(NC(=O)COC(=O)/C=C/c2c(C)nn(-c3ccc(F)cc3)c2Cl)cc1F | -7% | -0.1 | -3.6 | -17 | 9 | -1.5 | 18 | 0.4
COC(=O)CC1COc2ccccc2N1C(=O)/C=C/c1ccccc1 (stereo not given) | 2% | -0.2 | 2.1 | 12 | 7 | 5.7 | -2 | 3.0
O=C(CSc1n[nH]c(-c2cccs2)n1)N1CCN(S(=O)(=O)c2ccccc2)CC1 | -8% | 0.2 | / | 17 | 0 | 0.0 | -1 | 2.7
Cc1cc(C(=O)CN2CCN(CC(=O)Nc3ccc(F)cc3)CC2)c(C)n1C1CC1 | 8% | -0.6 | -6.2 | / | -5 | / | / | 0.5
Cn1nc(NC(=O)CC(C)(C)CC(=O)O)c2ccccc21 | -3% | 0.0 | -2.2 | 3 | / | -1.8 | -31 | -5.7
COc1ccc(Br)cc1/C=C(\C(=O)O)c1ccc(S(=O)(=O)N2CCCC2)s1 | 22% | 0.1 | -2.2 | / | 2 | / | / | 2.1
Cc1ccc(C(=O)N2CCC3(CC2)NCCc2[nH]cnc23)cc1 | / | 1.1 | 1.1 | -2 | / | 6.3 | -2 | 1.9
O=S(=O)(Oc1ccccc1N1CCCCC1)c1ccccc1 | -3% | -0.1 | -0.1 | 1 | 5 | -1.7 | 13 | 3.0
CCN1C(=O)/C(=C2/C=CC=CN2C)SC1=S | 8% | -0.1 | / | -8 | 4 | -1.1 | -8 | 0.4
COc1ccc(OCc2cc(C(=O)N(C)Cc3cc(C)no3)no2)c(Cl)c1 | / | -0.7 | -1.7 | 7 | -2 | 2.0 | 2 | 11
C/C(=N\NC(=O)c1nn(C)c(C)c1Br)c1ccc(NC(=O)c2ccoc2C)cc1 | 21% | -5.0 | / | -10 | 11 | 1.5 | 4 | 5.2
COc1cccc(C(=O)OCC(=O)Nc2ccc3c(c2)OCCO3)c1 | -6% | 0.2 | 0.1 | / | -11 | / | / | 1.2
CCOCCCNC(=O)C1CCN(S(=O)(=O)N2CC(C)CC(C)C2)CC1 (stereo not given) | 28% | 1.2 | / | 35 | -1 | 0.3 | 2 | 1.9
CC(C)CCNC(=O)c1ccc(CSCc2cccc(F)c2)o1 | -1% | 0.7 | / | -24 | -2 | 0.4 | 2 | -1.7
Cc1ccc(S(=O)(=O)N2CCN(S(=O)(=O)N(C)C)CC2)c(C)c1 | -4% | 0.1 | / | 5 | 8 | -2.3 | 6 | 7.0
Nn1c(Cc2cccc3ccccc23)nnc1SCc1ccccc1 | -10% | 0.6 | 2.2 | -24 | -8 | -1.7 | 6 | 0.0
CCn1cc(S(=O)(=O)CC(=O)N2CCc3ccccc32)c2ccccc21 | / | 1.0 | -3.0 | 4 | 21 | ? | 10 | 2.0
CC(C)CCNC(=O)CN(CCCN1CCOCC1)C(=O)Cn1nnc(-c2ccc(F)cc2)n1 | 1% | 0.1 | / | ? | / | ? | 18 | 6.0
CCOC(=O)C1CCN(C(=O)COC(=O)c2ccc3c(c2)C(=O)N(c2ccc(OCC)cc2)C3=O)CC1 | 3% | 1.5 | 0.8 | 3 | -4 | 5.3 | 1 | -5.9
Cc1c(C)n(CCc2ccccc2)c2ncnc(NCCCN(C)C)c12 | 0% | -0.9 | 14 | -4 | 3 | 3.8 | 31 | -4.6
COC(=O)N/N=C/c1ccccc1 | 3% | 0.3 | -0.9 | 25 | 2 | -2.2 | -17 | 0.4
CC(C)(C)c1ccc(NC(=O)Nc2ccc3ccccc3n2)cc1 | -6% | 0.6 | -0.4 | -34 | 5 | 1.8 | / | -0.7
Cc1ccc(S(=O)(=O)n2nc(OC(=O)c3ccccc3F)cc2N)cc1 | / | 0.5 | 1.3 | 9 | -5 | -1.0 | -6 | -1.4
Cc1ccc(CN2CCC(n3nccc3NC(=O)C3CCOC3)CC2)cc1 (stereo not given) | / | 1.0 | -2.2 | -8 | 1 | -8.7 | 2 | 2.9
COC(=O)c1nnc(-c2ccccc2)c(-c2ccccc2)n1 | 4% | 1.7 | / | 6 | 1 | ? | -7 | 0.8
COCCCNc1ncnc2sc3c(c12)CCC(C)C3 (stereo not given) | -9% | -0.3 | / | -1 | 10 | -0.3 | 14 | 4.2
O=C1NC(=O)C2(COC(c3cccnc3)OC2)S1 (stereo not given) | 10% | -0.4 | -0.5 | -12 | 4 | 3.2 | 0 | 4.4
COc1cccc(/C=N/NC(=O)c2csc(-n3nc(C)cc3C(F)(F)F)n2)c1 | -2% | -0.1 | / | -5 | 7 | -1.1 | 2 | -1.2
C[C@]1(C(=O)O)Cc2oncc2C[C@@H]1C(=O)O | -4% | 0.8 | 4.7 | 1 | 0 | 0.1 | -7 | 2.0
Cc1ccc(NC(=O)NNC(=O)c2sccc2-n2cccc2)cc1 | 0% | 1.3 | 0.9 | -14 | -1 | 4.3 | -20 | -0.1
CCOC(=O)C(=CN(CCc1ccccc1)CC(=O)OC)C(=O)OCC | -3% | -0.6 | -4.5 | -4 | / | ? | -12 | -1.9
COC(=O)c1c(NC(=O)CN2CCN(C(=O)c3ccco3)CC2)c2c(C)cccc2n1C | -1% | -0.5 | / | -5 | -1 | -2.5 | -10 | -1.3
CC(C)(C)OC(=O)C[C@H]1C/C=C\C[C@@H](CC(=O)N(CCO)Cc2ccccc2)C(=O)NC[C@H](c2ccccc2)OC1=O | / | 0.0 | 1.2 | / | 4 | / | / | 0.7
COC(=O)[C@@H](NC(=O)NC1CCCc2ccccc21)C(C)C (stereo not given in full) | 0% | 0.4 | / | -21 | -1 | ? | -4 | -4.0
Cc1ccc(-c2nc(-c3ccccn3)no2)cc1 | 3% | -9.3 | / | -23 | 58 | -2.1 | -8 | -2.2
Cc1c(Cl)cccc1NC(=S)NCC(O)c1ccccc1 (stereo not given) | / | 0.2 | 1.3 | -9 | -4 | 6.4 | -7 | 0.5
CCOC(=O)N1CCC(NC(=O)C2CCN(S(=O)(=O)N3CCC(C)CC3)CC2)CC1 | 20% | -0.1 | 7.3 | / | / | / | / | 5.9
COc1ccc(CNC(=O)C2CCN(C(=O)c3sccc3-n3cccc3)CC2)cc1 | -4% | -1.0 | 3.9 | 23 | 1 | 1.8 | 6 | 5.1
CCCNC(=O)Cn1cnc([N+](=O)[O-])n1 | / | -0.2 | -0.9 | 40 | -11 | -2.9 | 45 | -5.7
CCC(Sc1nc2n[nH]c(C)c2c(=N)n1-c1cc(Cl)ccc1C)C(=O)N1CCOCC1 (stereo not given) | -10% | -0.2 | / | 7 | 6 | 3.8 | 16 | -1.3
COc1cccc(N/N=C/c2cccc(Br)c2O)c1 | -6% | -2.8 | / | -7 | 19 | -2.6 | 65* | 0.3
Cc1ccc(C)c(SCC(=O)Nc2ccc(S(=O)(=O)Nc3ncccn3)cc2)c1 | / | 0.5 | 3.6 | -7 | -15 | -1.3 | 3 | -1.9

Continued:
SMILES | Vif A3G | Bfl-1 A1 inh | AF4-AF9 inh | Calb FLC | Beta apoptosis | RanGTP-Impb inh | T cruzi inh | LANA-H2B inh
O=S(=O)(Nc1cccc(-n2cnnn2)c1)c1ccc(Cl)nc1 | -13% | 0.1 | -1.2 | 11 | 0 | 2.3 | -11 | 3.3
CC(C)(C)c1ccc(C(=O)Nc2ccccc2NC(=O)c2ccco2)cc1 | -6% | 0.4 | / | 2 | 4 | -1.1 | 7 | -4.1
O=C(COC(=O)c1cccc(Cl)c1)NCCN1C(=O)CSC1=O | / | 0.8 | -13 | -3 | -2 | -0.2 | -13 | -2.0
O=C(CN1C(=O)NC2(CCCCCC2)C1=O)NCc1ccc(F)cc1 | -10% | 0.0 | -1.0 | / | -4 | / | / | 1.9
Cc1ccc(OCC(=O)N2CCN(S(C)(=O)=O)CC2)cc1 | 0% | -0.9 | -10 | -10 | -3 | 4.8 | -4 | -3.7
COc1ccc(CNc2ccc3c(c2)ncn3C)cc1OC | / | 0.4 | -9.0 | -4 | 4 | -2.1 | 2 | 0.0

High-throughput results as filed in PubChem BioAssay.
